# Compound activity deposited in PubChem BioAssay by several laboratories.
# Vif TR-FRET: inhibitors of Vif binding to APOBEC3G peptide, primary screen, biochemical, TR-FRET, GST-Vif 1-94, biotin-A3G peptide, dose response retest (AID 1117319); hit rate 0.57% among 260,000; TR-FRET GST-Vif / biotin-A3G peptide binding; higher % means a stronger effect; test concentration not given here; strong numbers were not always called active; one-dose inhibition, %; IC50 in µM for titrated hits;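 active = above the screen mean plus three standard deviations and confirmed in dose response; inconclusive = results disagree or hit not tested in dose response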;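 also: Vif residues 1-94 fused to GST binding biotinylated APOBEC3G peptide 110-148; 0% = full assay without inhibitor and 100% = GST in place of GST-Vif; retest series ran down from 100 µM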
# T cruzi repl: blocks replication of Trypanosoma cruzi; hit rate 1.4% among 300,000; T. cruzi beta-gal in NIH3T3, luminescence, 90 h; inhibition, % (concentration not given with the values); AID 1885;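 active = mean inhibition across valid replicates above about 55%, limit read from the data; inconclusive = mean below that limit but half or more replicates reach it; inactive = mean below it, under half of replicates reach it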;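 also: signal also drops with host cell toxicity which is not excluded here; 0% = plate median of DMSO wells and 100% = zero luminescence signal; higher percent means less beta-gal luminescence so fewer parasites; stock transfer was 50 nL into about 50 µL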
# RanGTP-Imp inh: disruptors of Ran-importin-beta complex formation – biochemical, FRET, CFP-Ran, YFP-importin-beta, homogeneous, primary screen; cell-free CFP-Ran/YFP-importin-beta FRET ratio; inhibition, % (no concentration beside the values); hit rate 1.1% among 300,000;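 active = most replicates above 15%; inconclusive = exactly half above 15%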;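 also: 0% = DMSO wells and 100% = Ran loaded with GDP instead of GTP; wells of about 40 µL received 100 nL stock; the first replicate is given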
# Ecoli rRNA inh: selective bacterial rRNA inhibition in E. coli | AID 720706 | GFP signal change (wild-type ribosome), % (test concentration not listed) | E. coli WT GFP vs humanized-ribosome RFP mutants, fluorescence, 24 h; active compounds read low; DMSO median 0, no signal -100 | hit rate 1.6% among 350,000;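 active = significant combined selectivity score with lowered wild-type GFP, culture density cut under 30%, mutant RFP and density less affected; inactive = any of these conditions unmet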; also: one replicate is shown; some compounds called inactive have numbers as strong as hits
# Calb FLC: affects C. albicans growth with fluconazole. C. albicans CaCi-2 (fluconazole-resistant clinical isolate) + fluconazole, Alamar Blue growth, 48 h. growth inhibition, % (no concentration beside the values). hit rate 0.57% among 300,000;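 active = most replicates above 75%; inconclusive = exactly half above 75%; inactive = most below 75%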;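 also: all wells also contain fluconazole at 8 µg/ml as a sub-toxic cotreatment; 0% = median of DMSO wells and 100% = median of geldanamycin control wells; wells of about 8 µL received 7.5 nL stock; the first replicate is given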
# Beta apoptosis: beta cell apoptosis inhibition; protection from apoptosis, % (no concentration beside the values); INS-1E cytokine-induced death, ATP luminescence, 48 h; percent of positive-control rescue, neutral wells zero; hit rate 0.8% among 300,000;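 active = all replicates at 75% or more, or half of them and the mean; inconclusive = half reach 75% but not the mean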;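 also: 0% = cytokine-treated negative control wells and 100% = positive control rescue; higher means more ATP so stronger rescue from cytokine killing; wells of about 40 µL received 100 nL stock; the first replicate is given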
# Bfl-1 A1 inh: inhibitors of the anti-apoptotic protein A1, read as caspase activation; hit rate 0.066% among 330,000; caspase activation, % (concentration not given with the values); MEF A1-2A-BIM cells, Caspase-Glo 3/7 luminescence, 3 h; percent of clofoctol response, vehicle zero;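 active = over half of replicate activation scores above 10%, or exactly half above 10 with the replicate mean above 10; inconclusive = replicate mean below 10 yet half the replicates above 10; inactive = over half of replicates below 10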;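 also: wells of about 30 µL received 50 nL stock; many hits fall short of the cut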
# MLL AF4-AF9 inh: blocks AF4 peptide binding to human AF9 | AlphaScreen, biotin-AF4 peptide binding to FLAG-AF9 | inhibition, % at 10 µM | hit rate 0.47% among 350,000;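 active = every replicate reaching a set inhibition limit, whatever the replicate mean, cut at about 25% in these data; inconclusive = mean inhibition reaches that limit but some replicates miss it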;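 also: 0% = plate neutral control median and 100% = total signal loss; the record names both 10 and 1 µM as test concentration; the first replicate is given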
# Target sequence (P42568 whole entry, looked up): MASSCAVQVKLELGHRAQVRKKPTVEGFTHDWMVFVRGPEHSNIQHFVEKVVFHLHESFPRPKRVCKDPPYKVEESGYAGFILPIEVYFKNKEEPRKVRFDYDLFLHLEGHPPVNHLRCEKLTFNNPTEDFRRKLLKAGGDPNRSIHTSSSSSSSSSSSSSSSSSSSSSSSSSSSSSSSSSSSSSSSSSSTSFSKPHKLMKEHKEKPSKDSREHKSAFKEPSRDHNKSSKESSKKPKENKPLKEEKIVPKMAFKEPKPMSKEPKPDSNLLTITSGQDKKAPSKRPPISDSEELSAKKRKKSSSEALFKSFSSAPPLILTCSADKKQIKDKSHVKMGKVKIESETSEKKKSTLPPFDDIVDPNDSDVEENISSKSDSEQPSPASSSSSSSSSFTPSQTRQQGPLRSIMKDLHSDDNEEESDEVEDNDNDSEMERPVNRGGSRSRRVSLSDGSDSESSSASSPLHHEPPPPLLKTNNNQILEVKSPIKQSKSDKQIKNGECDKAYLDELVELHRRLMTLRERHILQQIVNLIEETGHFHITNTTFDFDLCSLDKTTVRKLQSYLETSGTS
# Ecoli rRNA inh OD600: further read-out of Ecoli rRNA inh, marked with its call; OD600 change, %; measured here: OD600 growth;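 optical density of the mix in the first replicate; 0 = DMSO median and -100 = no signal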
# Ecoli rRNA inh RFP: further read-out of Ecoli rRNA inh, marked with its call; RFP signal change, %; measured here: RFP humanized mutant strains;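 first replicate; 0 = DMSO median and -100 = no signal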
# An asterisk follows results filed as active; ? = inconclusive; nt = not tested or not shown. The list is partial (hit frequency here may not be typical).
SMILES,Vif TR-FRET,T cruzi repl,RanGTP-Imp inh,Ecoli rRNA inh,Ecoli rRNA inh OD600,Ecoli rRNA inh RFP,Calb FLC,Beta apoptosis,Bfl-1 A1 inh,MLL AF4-AF9 inh
COc1ccc(C(=O)Oc2cccc(Nc3ncnc4ccccc34)c2)cc1OC,nt,-14,0.5,nt,nt,nt,-37,2,-0.4,nt
COc1cc(OC)c(NC(=O)CNC(=O)Cn2ccc3ccccc3c2=O)cc1Cl,nt,0,-2.2,9,11,5.2,-3,-3,-0.4,-1.0
CCN(CC)C(=O)Cn1cc(C(=O)C(=O)NCC2COc3ccccc3O2)c2ccccc21 (centres undefined),0%,nt,nt,-10,-3,2.3,-8,-2,0.1,-0.1
COc1cccc(Nc2nc(-c3cccc(N4C(=O)c5ccccc5C4=O)c3)cs2)c1,?,-9,1.2,nt,nt,nt,3,-5,-2.2,nt
CCOC(=O)C1CCCN(C(=O)c2cccc(NC(=O)C(CC)CC)c2)C1 (centres undefined),-2%,-4,-1.0,15,19,3.0,-5,2,-0.1,-0.5
COc1ccc2c(c1)oc(=O)c1c3ccccc3[nH]c21,-29%,10,-5.3,13,7,-0.7,19,nt,nt,-3.7
CCC1(C)Cc2nc3[nH]c(=S)n(-c4ccccc4C)c(=O)c3cc2CO1 (centres undefined),17%,-1,3.4,2,0,-2.1,-1,4,0.2,-1.8
CCN(C(C)=O)c1ccc(Oc2nc(OC)cc(OC)n2)cc1,1%,7,-2.5,-7,-14,-2.7,4,4,0.1,-0.5
NC(=S)n1[nH]c(-c2ccc([N+](=O)[O-])cc2)c(N=Nc2cccc(Cl)c2)c1=O,6%,-42,-6.5,7,14,1.5,28,nt,nt,8.5
CC(CCc1ccccc1)NC(=O)CN1CCN(c2ccccc2)CC1 (centres undefined),-1%,39,5.9,15,6,-7.6,43,3,-0.3,-1.1
CCNc1nnc(-c2ccccc2OC)s1,-6%,-2,1.8,nt,nt,nt,5,3,0.5,nt
CN(CC(=O)Nc1ccccc1Br)C(=O)c1cccnc1Nc1cccc(C(F)(F)F)c1,3%,5,-3.0,-5,-16,-1.3,15,1,0.2,2.2
Cc1cc(C)cc(OCC(=O)N(Cc2ccc(N(C)C)cc2)C2CCS(=O)(=O)C2)c1 (centres undefined),?,1,?,-3,-3,2.1,-2,nt,-0.6,3.4
O=C(NCc1ccco1)c1ccc(COc2ccccc2Cl)cc1,9%,-5,0.6,nt,nt,nt,-8,-18,0.0,nt
CCN1CCN(C(=O)c2ccccc2NC(=O)c2ccc(Cl)cc2)CC1,-3%,2,-2.4,6,13,-1.0,-2,-1,0.8,-4.8
Cc1[nH]c2ccc(C(=O)NCCCN3CCCC3)cc2c1C,4%,-6,-2.1,13,12,0.2,-10,-6,0.5,1.8
O=C1NC(c2cccc(Br)c2)=N/C1=C\c1ccco1,9µM*,-19,7.6,nt,nt,nt,-3,7,0.2,0.2
O=C(/C=C/c1cccc(F)c1)NCCCn1ccnc1,4%,11,1.3,8,9,-0.5,0,6,-0.6,-0.7
O=C1CC(c2ccccc2Oc2cccc(Cl)c2)C(n2cncn2)C(=O)C1C1NCCc2ccccc21 (centres undefined),nt,-12,6.9,-3,-6,0.4,-4,-6,-0.1,1.1
C=CCSc1nc2c(c(=O)[nH]c(=O)n2C)n1C/C=C(/C)Cl,3%,19,2.2,nt,nt,nt,-4,1,-0.2,nt
O=C(CCC(=O)OCc1ccc([N+](=O)[O-])cc1)Nc1ccccc1Cl,nt,-4,-5.6,10,13,-1.3,5,-2,2.0,-2.9
CC(C)NC(=O)COc1cccc2ccccc12,-5%,-1,-8.2,-5,-1,-4.3,19,-5,0.1,-0.9
CCN(CC)C(=O)C12CC3CC(CC(Cl)(C3)C1)C2,9%,10,1.1,nt,nt,nt,-4,-4,0.5,2.7
Cn1c(CCNC(=O)c2cccs2)n[nH]c1=S,15%,-7,3.6,nt,nt,nt,3,-11,-0.2,nt
CCn1c(CNC(=O)C2CCCCC2)cc2ccccc21,-7%,-5,3.2,3,6,-1.2,0,4,0.3,0.3
CCOC(=O)n1c(=O)oc2cc(S(=O)(=O)N3CCOCC3)ccc21,10%,-2,0.2,nt,nt,nt,?,-7,0.4,nt
O=C1CC2(CCOCC2)Oc2ccc3ccccc3c21,nt,10,-3.2,-15,-13,-9.3,0,-1,-0.7,-25
N/C(=N\OC(=O)Oc1ccccc1)c1ccc(Br)cc1,2%,-8,-5.2,nt,nt,nt,-3,0,-1.2,nt
COCCNC(=O)c1cc2c(s1)-c1ccc(Cl)cc1SC2,-1%,3,-2.3,-5,-5,-5.3,0,-6,2.1,2.2
CCOc1cc(C(=O)Oc2cc(C)[nH]c(=O)c2[N+](=O)[O-])cc(OCC)c1OCC,-2%,-12,-0.5,2,7,-1.4,2,1,0.2,-8.3
CC(CNC(=O)c1cccs1)c1ccc([N+](=O)[O-])cc1 (centres undefined),29%,-10,2.4,8,15,17,-12,3,-0.6,-0.5
Cc1cccc(-n2c(N)cc(=O)nc2SCC(=O)Nc2nnc(CC(C)C)s2)c1,-2%,-8,-1.2,nt,nt,nt,5,nt,nt,nt
Cc1cc(C)nc(N/N=C/c2ccccc2OCC(=O)O)n1,nt,-4,5.8,6,5,2.3,3,-4,-0.5,-19
COc1ccc(N=Cc2c(O)n(-c3ccc(OC)cc3)c(=O)c3ccccc23)cc1,-1%,5,5.0,11,11,-0.7,-5,11,?,-7.1
O=C(N/N=C/c1ccc([N+](=O)[O-])cc1)c1c[nH]c2ccccc12,-4%,20,?,11,9,0.1,-16,12,-0.1,-0.5
Cc1cc(C)n2nc(C(=O)N3CCCC(N4CCN(c5ccccc5C)CC4)C3)cc2n1 (centres undefined),nt,20,5.2,-1,5,-1.1,-1,nt,nt,2.7

# Brought forward from above: 2 compounds; new compounds follow.
SMILES,Vif TR-FRET,T cruzi repl,RanGTP-Imp inh,Ecoli rRNA inh,Ecoli rRNA inh OD600,Ecoli rRNA inh RFP,Calb FLC,Beta apoptosis,Bfl-1 A1 inh,MLL AF4-AF9 inh
O=C(N/N=C/c1ccc([N+](=O)[O-])cc1)c1c[nH]c2ccccc12,-4%,20,?,11,9,0.1,-16,12,-0.1,-0.5
Cc1cc(C)n2nc(C(=O)N3CCCC(N4CCN(c5ccccc5C)CC4)C3)cc2n1 (centres undefined),nt,20,5.2,-1,5,-1.1,-1,nt,nt,2.7
CCNS(=O)(=O)c1ccc(CCC(=O)Nc2ccccc2)cc1,14%,-3,1.2,14,8,1.5,-27,0,0.4,0.8
Cc1nc(SCC(=O)NC2CCCCC2C)nc(C)c1C (centres undefined),-2%,nt,nt,7,4,4.7,nt,-5,-0.5,1.8
O=C(O)Cn1c(=O)c2c3c(sc2n(Cc2ccc(F)cc2)c1=O)CCCC3,-1%,-1,3.1,-10,-23,-5.3,21,-5,0.2,-2.3
O=C1C2C(C(=O)N1c1ccc3c(c1)OCO3)C1C=CC2C12CC2 (centres undefined),0%,2,-5.0,2,1,-9.4,-9,nt,0.9,1.3
CCOC(=O)N1CCC(N2CCCC(C(=O)c3cccc(OC(C)C)c3)C2)CC1 (centres undefined),nt,37,0.1,4,-2,-3.9,-26,-2,0.5,-20
CC(CC(=O)Nc1ccc(Br)cc1F)S(=O)(=O)c1ccc2c(c1)NC(=O)CO2 (centres undefined),nt,-19,-4.2,-16,-19,0.7,-2,-2,-0.3,0.9
Cc1cccc2c(C(=O)O)cc(-c3cccnc3)nc12,6%,-5,-1.2,5,-4,-0.8,-8,-7,1.0,-0.3
CNc1nc(N)c([N+](=O)[O-])c(N2CCCCCC2)n1,nt,5,-3.1,-13,-21,3.3,-15,-3,-1.4,4.9
CN(Cc1ccccc1)S(=O)(=O)c1ccc(Cl)c(C(=O)N2CCC(C(N)=O)CC2)c1,1%,nt,nt,5,-1,-0.6,nt,-5,-0.4,-4.9
CC(C)CCNS(=O)(=O)c1cc2c3c(c1)CCN3C(=O)CC2,nt,-8,3.8,4,10,-1.6,-6,-4,0.1,-0.6
CS(=O)(=O)N(CC(=O)N1CCc2ccccc2C1)c1ccc2c(c1)OCO2,10%,-8,-2.0,nt,nt,nt,0,2,-0.9,nt
CC1=NN(C(=O)COc2ccccc2C)C(O)(c2ccc(Cl)cc2)C1 (centres undefined),27%,4,3.8,-5,-10,4.0,-8,2,0.2,1.4
CN(C)S(=O)(=O)c1cccc(-c2cn3cccnc3n2)c1,?,-5,?,13,11,3.7,19,-6,-0.9,-1.2
O=C(CNC(=O)c1cccnc1)N/N=C/c1cc(Br)c(O)c(Br)c1,1%,1,-2.5,-4,1,-0.4,-4,-5,0.2,-0.3
Oc1ccc(/C=N/Nc2ccc3ccccc3c2)c(O)c1,9%,4,16*,-32*,2.2*,5.8*,-22,4,-1.0,4.6
O=C(Nc1ccc(NC(=O)c2ccccc2Br)cc1)c1ccccc1,nt,-18,-0.9,11,3,10,-4,-7,0.5,-0.1
CCc1ccc(CN(C)C(=O)c2cc(COc3cccc4cnccc34)on2)cc1,nt,51,-2.6,-57,-72,-15,5,78*,0.0,0.5
Cc1oc(-c2ccc(-c3ccccc3)cc2)nc1CN(CCO)C(C)C,nt,-3,-0.4,-11,-14,0.9,-1,-4,-1.4,5.3
CC(=O)Nc1nc(-c2ccc(Br)s2)cs1,0%,-3,-2.3,nt,nt,nt,-12,6,-0.2,nt
O=C(NC1CCCN(CCc2ccccc2)C1)C1CCCC1 (centres undefined),-1%,55*,0.9,0,11,-3.1,3,nt,-0.2,-0.2
COc1ccc(OC)c(/C=C2\SC(=S)N(NS(=O)(=O)c3ccc(C)cc3)C2=O)c1,-5%,2,-5.7,-9,-33,18,89*,-5,-0.2,-5.4
CCOc1ccc2c(c1)sc(=NC(=O)C1CC1)n2C,-5%,2,2.4,-12,-3,-1.3,0,2,-1.1,-17

# Complete entries as entered above.
# Results for `Oc1ccc(/C=N/Nc2ccc3ccccc3c2)c(O)c1` = Vif TR-FRET: 9%; T cruzi repl: 4; RanGTP-Imp inh: 16*; Ecoli rRNA inh: -32*; Ecoli rRNA inh OD600: 2.2*; Ecoli rRNA inh RFP: 5.8*; Calb FLC: -22; Beta apoptosis: 4; Bfl-1 A1 inh: -1.0; MLL AF4-AF9 inh: 4.6
# Results for `CCc1ccc(CN(C)C(=O)c2cc(COc3cccc4cnccc34)on2)cc1` = Vif TR-FRET: nt; T cruzi repl: 51; RanGTP-Imp inh: -2.6; Ecoli rRNA inh: -57; Ecoli rRNA inh OD600: -72; Ecoli rRNA inh RFP: -15; Calb FLC: 5; Beta apoptosis: 78*; Bfl-1 A1 inh: 0.0; MLL AF4-AF9 inh: 0.5
